BJeLR viability: kills HRASV12-expressing BJeLR cells; BJeLR (HRASV12) viability, CellTiter-Glo ATP luminescence, 48 h; reference of the scale not given here; inhibition, % (test concentration not listed); 0.17% of 300,000 active;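 active = replicate mean above 50%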;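 also: 50 nL library stock added to about 25 µL; numbers are from one replicate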
Mtb hypoxia rep: inhibitors of hypoxia-regulated fluorescent reporter in Mycobacterium tuberculosis. fluorescence inhibition, % (test concentration not listed). M. tuberculosis hypoxia-regulated fluorescent reporter, fluorescence. 0.1% of 300,000 active. AID 1159583;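 active = 35 to 45% if threefold the growth effect, above 45% if 1.5-fold the growth effect; inactive = the rest, general growth blockers included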;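 also: wells of about 50 µL received 100 nL stock; 0% = vehicle wells and 100% = reference inhibitor wells; whole bacteria with a GFP reporter of the hypoxia response; strong numbers were not always called active; many hits fall short of the cut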
Bead autofluor: compound fluorescence in toxin protease inhibitor counterscreen; compound autofluorescence counterscreen, microsphere flow cytometry; hits give high values; fluorescence intensity (test concentration not listed); 3.1% of 360,000 active;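 active = at least 3 SD above the mean of all compounds, about 16000 in these data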;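 also: 100 nL of 1 mM stock went into each well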
Sa ugtP lethal: growth inhibition of S. aureus ugtP deletion strain. S. aureus RN4220 ugtP deletion, OD600 growth, 16 h; some inactives read as strong as hits. growth inhibition, % (test concentration not listed). 0.54% of 330,000 active. AID 1259309;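 active = z-score under -3 and OD600 up to 0.15 on both plates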;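 also: plate controls were untreated wells for no effect and antibiotic for full effect; wells of about 80 µL received 100 nL stock; the first replicate is given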
PrP 5UTR inh: suppresses PrP 5' UTR mRNA reporter expression | cell-based PrP 5' UTR mRNA reporter, plate reader | inhibition, % (no concentration beside the values) | 0.35% of 340,000 active | AID 488862;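 active = every replicate at 50% or more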;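 also: 0 = median of the neutral control wells; tested in H4 reporter cells; numbers are from one replicate; inactives centre near -14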
Sa RN4220 lethal: S. aureus RN4220 growth inhibition; AID 1259311; inhibition, % (test concentration not listed); OD600, 16 h; 0.33% of 330,000 active;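 active = z-score of -3 or lower and OD600 up to 0.18 on both plates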;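 also: plate controls were untreated cells for no effect and reference antibiotic for full effect; stock transfer was 100 nL into about 80 µL; one replicate is shown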
Mtb hypoxia rep growth: recorded beside Mtb hypoxia rep, whose call it bears; growth inhibition, %; measured here: M. tuberculosis growth (absorbance);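 0% = vehicle and 100% = reference antibiotic; read after six days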
Numbers without * were called inactive; / = not tested or not shown.

Field names – A = BJeLR viability; B = Mtb hypoxia rep; C = Mtb hypoxia rep growth; D = Bead autofluor; E = Sa ugtP lethal; F = PrP 5UTR inh; G = Sa RN4220 lethal
1	CCCN1C(=O)c2ccccc2NC1c1ccc(Br)cc1 (configuration not stated)
  A: -13.2	B: -12.8	C: -2.0	D: 3245	E: 0.9	F: 5.6	G: -0.9

2	COCC(=O)Nc1c(C(=O)Nc2ccccc2OC)oc2ccccc12
  A: 10.9	B: 14.0	C: 4.8	D: 23967*	E: -2.0	F: -33.6	G: 3.7

3	COc1ccc(CNc2nc(NCc3ccc(OC)cc3)n(S(C)(=O)=O)n2)cc1
  A: -1.7	B: /	C: /	D: 4660	E: -3.5	F: -17.7	G: 5.6

4	Cc1[nH]n(C)c(=O)c1N=Nc1ccc(S(C)(=O)=O)cc1
  A: 5.1	B: 21.8	C: 3.5	D: 3602	E: 3.3	F: -18.6	G: 5.4

5	CN(CCCCN1CCOCC1)Cc1nc(-c2ccc3c(c2)OCO3)no1
  A: -7.0	B: 5.3	C: 0.6	D: 4076	E: 3.5	F: -25.0	G: 0.7

6	CC1CCCCC1NC(=O)COC(=O)c1ccccn1 (configuration not stated)
  A: 7.7	B: -3.3	C: 2.5	D: 2889	E: -2.3	F: -19.4	G: -1.1

7	O=C(Cn1cnc2c(nnn2Cc2ccccc2F)c1=O)N1CCN(c2ccccc2)CC1
  A: -9.0	B: 3.6	C: 8.4	D: 8316	E: 3.8	F: -14.3	G: -0.2

8	COc1ccc(C(C(=O)NC(C)(C)C)N(C(=O)CNC(=O)c2cccs2)c2cccnc2)cc1OC (configuration not stated)
  A: -4.3	B: -4.0	C: -6.8	D: 2840	E: 3.3	F: -9.9	G: -3.4

9	Cc1ccc(OCCNC(=O)C2CC(=O)N(c3ccc(C)cc3)C2)cc1 (configuration not stated)
  A: -3.1	B: /	C: /	D: 2721	E: -3.2	F: 0.0	G: 2.4

10	COc1ccccc1CNC(=O)c1cccc(S(=O)(=O)N(C)c2ccccc2)c1
  A: /	B: 21.5	C: 2.0	D: 2982	E: 5.6	F: -17.4	G: -0.1

11	COC(=O)Cc1c(O)ccn(Cc2ccc(Cl)c(Cl)c2)c1=O
  A: -4.0	B: 6.3	C: 3.7	D: 4457	E: 1.6	F: -7.3	G: 12.4

12	COc1ccccc1C=NNC(=O)c1ccc(NC(=O)c2cccc([N+](=O)[O-])c2)cc1
  A: /	B: -11.6	C: -4.8	D: /	E: 0.9	F: /	G: -3.2

13	CC(=O)NCCc1nc2ccccc2[nH]1
  A: 1.1	B: -0.4	C: 3.2	D: 5363	E: 7.0	F: -27.4	G: 6.5

14	CCCCCC(=O)Nc1ccc2oc(-c3ccncc3)nc2c1
  A: -0.6	B: 2.4	C: 8.1	D: 2825	E: 11.3	F: -26.6	G: 9.1

15	Cc1cc(C(=O)NC2CCCc3c2cnn3-c2cccc(C)c2C)n(C)n1 (configuration not stated)
  A: 26.9	B: -1.1	C: 10.3	D: 6256	E: -3.2	F: 14.2	G: -2.1

16	O=C(CSc1nnc(-c2ccco2)n1CC1CCCO1)c1ccccc1 (configuration not stated)
  A: 11.4	B: /	C: /	D: 2740	E: -7.1	F: -20.1	G: 3.6

17	Cc1ccccc1CN1CCN(C(=O)c2cccc(F)c2)CC1
  A: -15.4	B: /	C: /	D: 2976	E: 2.0	F: -4.3	G: 2.0

18	O=S(=O)(N/N=C1/CC(c2ccccc2)Oc2ccccc21)c1ccccc1 (configuration not stated)
  A: /	B: 3.3	C: 5.7	D: 3603	E: 14.0	F: -32.6	G: -2.0

19	O=C1c2ccccc2C(=O)N1c1ccccc1S(=O)C(F)(F)F (configuration not stated)
  A: -1.9	B: 10.7	C: 5.8	D: 2438	E: 2.2	F: 4.7	G: 5.4

20	C[C@]12C(=O)N(c3ccc(Br)cc3)C(=O)N1[C@@H]1c3ccccc3OC[C@@H]1[C@H]2c1ccccc1
  A: 4.9	B: -4.1	C: -4.7	D: 2794	E: 5.8	F: -1.5	G: 14.1

21	CN(C)C(=O)CSc1nc2ccccc2c(=O)[nH]1
  A: -7.2	B: /	C: /	D: 4690	E: -3.5	F: -55.9	G: -5.3

22	O=C(Nc1cccnc1)C1(F)C(F)(F)C(F)(F)C(F)(F)C(F)(F)C1(F)F
  A: -0.2	B: /	C: /	D: 3085	E: 9.5	F: -10.5	G: 17.8

23	CCn1c(C)nc2cc(C(=O)N/N=C/c3cccc(OC)c3O)ccc21
  A: 7.1	B: /	C: /	D: 2638	E: /	F: 7.2	G: /

24	O=C(COC(=O)c1cc(=O)[nH]c2ccccc12)NCc1cccs1
  A: 0.6	B: 5.7	C: 8.3	D: 5424	E: -3.7	F: -19.8	G: 1.3

25	N#Cc1ncc(C(F)(F)F)cc1Sc1ccc(N)cc1
  A: 4.0	B: /	C: /	D: 2621	E: 5.5	F: 0.4	G: 1.9

26	CCn1c(=O)c([N+](=O)[O-])c(NCCN(C)C)c2ccccc21
  A: 5.1	B: -2.8	C: 4.6	D: 4429	E: -1.2	F: 41.6	G: 7.9

27	C=CCNC(=O)C(C)Sc1ccc(Cl)cc1 (configuration not stated)
  A: -5.7	B: 14.3	C: 3.8	D: 3688	E: 7.8	F: -0.5	G: -0.1

28	CC1CCCN(CCCNC(=O)C2CC(=O)N(CCc3ccccc3)C2)C1 (configuration not stated)
  A: 2.8	B: 7.2	C: 0.6	D: 5344	E: 1.1	F: -23.4	G: 3.7

29	O=S(=O)(c1cccc2cccc(Cl)c12)N1CCCC1
  A: -1.8	B: 14.6	C: 11.6	D: 4251	E: 2.9	F: 10.6	G: 3.6

30	CCn1ccnc1CNC(=O)CC1C(=O)NCCN1CCCc1ccccc1 (configuration not stated)
  A: 1.1	B: 12.2	C: 0.0	D: 5995	E: 6.5	F: -13.6	G: 2.5

31	CC(=O)Cc1nsc(NC(=O)c2ccc(COc3ccc(C)cc3)o2)n1
  A: -5.4	B: /	C: /	D: 3320	E: 12.4	F: -12.6	G: 5.5

32	Cc1ccc(CNS(=O)(=O)c2cc(F)ccc2CN2C(=O)c3cccnc3C2=O)o1
  A: -0.7	B: -11.0	C: 7.1	D: 5620	E: -0.9	F: 11.7	G: 0.0

33	COc1ccccc1C(C)NCC(=O)Nc1ccccc1C(F)(F)F (configuration not stated)
  A: -6.0	B: 0.1	C: -1.3	D: 2503	E: 0.8	F: -25.8	G: 5.0

34	CCOc1ccc(OCC)c(NC(=O)CSc2nc3ccccc3c(=O)n2C)c1
  A: 9.0	B: -7.3	C: 2.3	D: 22042*	E: -3.8	F: 8.9	G: -1.8

35	O=c1c2ccccc2nc(C=Cc2cccc([N+](=O)[O-])c2)n1CCO
  A: /	B: 2.0	C: 11.8	D: /	E: -10.6	F: /	G: 2.3

36	O=c1c(-c2ccccc2)coc2c(CN3CCCC3)c(O)ccc12
  A: -10.5	B: 3.0	C: 8.6	D: 10099	E: 10.6	F: -22.0	G: 6.0

37	CCOC(=O)c1cnc2ccc(OCC)cc2c1NCc1cccnc1
  A: 0.9	B: -4.3	C: -8.5	D: 2367	E: -4.4	F: -16.6	G: -2.0

38	CC1(C)C(=O)CC[C@@]2(C)C1CC[C@]1(C)C2C(=O)C=C2C3C[C@@](C)(C(=O)O)CC[C@]3(C)CC[C@@]21C (some centres not stated)
  A: /	B: 6.9	C: 6.8	D: /	E: 31.0	F: /	G: 14.9

39	O=C(c1ccc2ccccc2n1)N1CCN(Cc2c(F)cccc2Cl)CC1
  A: 2.1	B: -0.6	C: -2.3	D: 4216	E: 0.1	F: 1.3	G: 4.1

40	Cc1cccc(NC(=O)c2cccc(C(=O)Nc3cccc(C)c3)n2)c1
  A: 9.8	B: 14.2	C: 2.6	D: 6408	E: 7.3	F: -40.3	G: 2.9

41	COc1ccc(-c2cc(=O)c3ccccc3[nH]2)cc1
  A: -3.6	B: 7.1	C: 6.7	D: 3713	E: -0.6	F: -31.8	G: 2.6

42	CCCOC(=O)c1c(NC(=O)CSc2nc(-c3ccco3)cc(C(F)(F)F)n2)sc(C(=O)OC)c1C
  A: -2.2	B: -8.1	C: -1.5	D: 11200	E: -0.3	F: -24.1	G: 0.7

43	O=C(Cc1ccc(F)cc1)Nc1ccc(F)c([N+](=O)[O-])c1
  A: -10.9	B: /	C: /	D: 3910	E: -6.2	F: -3.7	G: -5.3

44	CCCCCCC(=O)N/N=C/c1c(O)n(C(C)CC)c(=S)[nH]c1=O (configuration not stated)
  A: -5.8	B: -3.2	C: 1.2	D: 6316	E: -1.9	F: -21.8	G: 9.0

45	CCN(CC)S(=O)(=O)c1ccc(C(=O)NCc2ccc3c(c2)OCO3)cc1
  A: -8.4	B: -1.7	C: 10.7	D: 3246	E: 15.0	F: -27.1	G: 2.6

46	Cc1ccc(-c2csc(=S)[nH]2)cc1
  A: 9.1	B: 9.5	C: -3.0	D: 4368	E: 5.6	F: -57.3	G: -2.5

47	CN(C(=O)c1ccc(N2CCCCC2)c([N+](=O)[O-])c1)C1CCS(=O)(=O)C1 (configuration not stated)
  A: /	B: 10.8	C: 5.7	D: 4094	E: 3.1	F: 5.9	G: 7.2

48	CC1CCCCN1CCNC(=O)C1CC(=O)N(c2ccc(F)c(Cl)c2)C1 (configuration not stated)
  A: 1.8	B: 6.6	C: 6.7	D: 5582	E: -4.9	F: -5.3	G: 1.3

49	COc1cc2c(cc1NC(=O)CSCC(=O)O)oc1ccccc12
  A: 1.9	B: 1.8	C: 2.9	D: 4590	E: -3.0	F: -16.2	G: -1.2

50	O=C(N/N=C\c1ccc2c(c1)OCO2)c1ccc(Cn2cc(Br)c([N+](=O)[O-])n2)o1
  A: 0.4	B: /	C: /	D: 2257	E: /	F: -9.9	G: /

51	Cc1cccc(CN2CCC(C(N)=O)CC2)c1
  A: -1.1	B: 7.4	C: 1.5	D: 7987	E: 2.1	F: -6.9	G: 2.5

52	CC(C)(C)NC(=O)Cc1ccc(Cl)c(Cl)c1
  A: 0.5	B: 14.6	C: 9.4	D: 3482	E: 6.5	F: -5.3	G: 3.1

53	CC(OC(=O)[C@@H](NC(=O)OCc1ccccc1)C(C)C)C(=O)Nc1ccc(N2CCOCC2)cc1 (some centres not stated)
  A: /	B: -13.2	C: 9.3	D: 3746	E: 0.2	F: 11.1	G: -2.6

54	O=C(CN1C(=O)S/C(=C\c2cccc(Cl)c2)C1=O)NCCCn1ccnc1
  A: -4.6	B: 6.8	C: -6.1	D: 5776	E: 7.8	F: -5.6	G: 5.3

55	Cc1cc(-n2ccc(=O)[nH]c2=O)nc(-c2ccccc2)n1
  A: 5.6	B: 9.8	C: 3.4	D: 2827	E: -0.6	F: -15.9	G: 4.6

56	CC(C)(C)n1nnnc1C(c1ccccc1)N1CCc2ccccc2C1 (configuration not stated)
  A: -4.4	B: /	C: /	D: 3651	E: -1.2	F: -7.8	G: 3.0

57	COc1cccc(C(=O)N2CCC(n3nccc3NC(=O)CCOc3ccccc3)CC2)c1
  A: 8.3	B: 9.8	C: -6.1	D: 6552	E: 5.2	F: -4.0	G: 4.9

58	O=C(CCC(=O)Nc1ccc(F)cc1)N/N=C/c1ccc(F)cc1
  A: 5.6	B: /	C: /	D: 3794	E: /	F: -15.7	G: /

A different layout for 8 compounds above.
51. Cc1cccc(CN2CCC(C(N)=O)CC2)c1
52. CC(C)(C)NC(=O)Cc1ccc(Cl)c(Cl)c1
53. CC(OC(=O)[C@@H](NC(=O)OCc1ccccc1)C(C)C)C(=O)Nc1ccc(N2CCOCC2)cc1 (some centres not stated)
54. O=C(CN1C(=O)S/C(=C\c2cccc(Cl)c2)C1=O)NCCCn1ccnc1
55. Cc1cc(-n2ccc(=O)[nH]c2=O)nc(-c2ccccc2)n1
56. CC(C)(C)n1nnnc1C(c1ccccc1)N1CCc2ccccc2C1 (configuration not stated)
57. COc1cccc(C(=O)N2CCC(n3nccc3NC(=O)CCOc3ccccc3)CC2)c1
58. O=C(CCC(=O)Nc1ccc(F)cc1)N/N=C/c1ccc(F)cc1
Compound,51,52,53,54,55,56,57,58
BJeLR viability,-1.1,0.5,/,-4.6,5.6,-4.4,8.3,5.6
Mtb hypoxia rep,7.4,14.6,-13.2,6.8,9.8,/,9.8,/
Mtb hypoxia rep growth,1.5,9.4,9.3,-6.1,3.4,/,-6.1,/
Bead autofluor,7987,3482,3746,5776,2827,3651,6552,3794
Sa ugtP lethal,2.1,6.5,0.2,7.8,-0.6,-1.2,5.2,/
PrP 5UTR inh,-6.9,-5.3,11.1,-5.6,-15.9,-7.8,-4.0,-15.7
Sa RN4220 lethal,2.5,3.1,-2.6,5.3,4.6,3.0,4.9,/

Screening results: PubChem BioAssay, several laboratories
